TRPC6 inhibitor: mouse TRPC6 channel inhibitors, primary screen, cell-based, HEK293, membrane potential dye; Short transient receptor potential channel 6 (Mus musculus), Q61143; ACh-evoked depolarization; stronger effect = lower value; B-score at 10 µM; hit rate 1.1% among 310,000; AID 2553, 2010;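 active means B-score under library mean minus 3 SD, initial fluorescence not abnormally high, positive integrated signal ratio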;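 further: B-score derived from integrated fluorescence ratio over the kinetic read; more negative B-score means stronger inhibition of depolarization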
MrgX1 ag: agonists of human MrgX1 receptor, primary screen, HEK293 cells, Fluo-4 calcium flux; hit rate 0.44% among 310,000; AID 588627, 2011; Fluo-4 calcium fluorescence, agonist mode; stronger effect = higher value; B-score at 10 µM; Mas-related G-protein coupled receptor member X1 (Homo sapiens), Q96LB2;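 active means calcium response B-score plate-corrected fluorescence ratio at least 3 library SD, with starting fluorescence B-score inside 5 SD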
Target sequence (Q96LB2 whole entry, looked up): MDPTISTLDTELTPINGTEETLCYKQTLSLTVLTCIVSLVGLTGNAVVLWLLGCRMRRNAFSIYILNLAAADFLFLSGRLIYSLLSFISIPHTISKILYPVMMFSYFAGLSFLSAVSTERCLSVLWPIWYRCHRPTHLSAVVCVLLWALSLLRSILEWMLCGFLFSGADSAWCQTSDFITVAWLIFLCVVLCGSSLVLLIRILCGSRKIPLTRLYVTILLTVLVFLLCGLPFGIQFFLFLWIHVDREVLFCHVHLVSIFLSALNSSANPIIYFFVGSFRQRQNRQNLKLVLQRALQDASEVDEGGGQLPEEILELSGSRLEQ
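System: HEK293 cells stably expressing human MrgX1 receptor; Dosing: test compound in the initial addition of three; Schedule: overnight plating, then 30 min 37 °C plus 30 min room-temperature dye loading; Detection: kinetic calcium dye fluorescence, Fluo-4 NW; Controls: per-plate positive and negative controls for Z′ factor.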
TRPC4 inh: inhibitors of mouse TRPC4 channel, primary screen, Fluo4 calcium, HEK293 TRPC4beta/mu-opioid cells. B-score at 10 µM. Short transient receptor potential channel 4 (Mus musculus), Q9QUQ5. hit rate 0.39% among 300,000. DAMGO-evoked Fluo4 calcium flux; stronger effect = lower value;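 active means B-score over 3 SD under the library average, no early fluorescence shift, positive overall ratio signal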
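Assay system: TRPC4beta/mu-opioid receptor HEK293 cell line; compound dosing: single concentration per test compound; detection: Fluo4 Ca2+ flux fluorescence; evaluation: per-well B score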
MrgX1 antag: antagonists of human MrgX1 receptor, primary screen, HEK293 cells, Fluo-4 calcium flux. Mas-related G-protein coupled receptor member X1 (Homo sapiens), Q96LB2. BAM8-22 antagonism; stronger effect = lower value. B-score at 10 µM. hit rate 1.3% among 310,000. AID 588676, 2011;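 active means calcium-response B-score plate-corrected more than 3 library SD below zero, starting fluorescence within 5 deviations, no agonist response on first addition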;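 further: peak minus trough fluorescence over baseline after final BAM8-22 challenge near maximal dose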
TRPC6 activator: mouse TRPC6 channel activators, primary screen, cell-based, HEK293, membrane potential dye; B-score at 10 µM; HEK293-TRPC6 membrane potential dye fluorescence; stronger effect = higher value; hit rate 0.13% among 310,000; Short transient receptor potential channel 6 (Mus musculus), Q61143;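 active means B-score of the integrated fluorescence ratio above library mean plus 3 SD, and starting fluorescence ratio within library mean plus 5 SD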;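 further: higher score means more depolarization so channel activation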
MrgX1 PAM: positive allosteric modulators of MrgX1, primary screen, HEK293 cells, Fluo-4 calcium flux; B-score at 10 µM; AID 588675, 2011; hit rate 0.63% among 310,000; Mas-related G-protein coupled receptor member X1 (Homo sapiens), Q96LB2; FDSS; stronger effect = higher value;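 active means plate-corrected calcium response at least 3 library SD above typical, normal starting fluorescence, not activating the receptor alone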;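 further: compound read alongside a low EC10 to EC30 dose of BAM8-22 agonist; peak minus trough fluorescence over baseline measured at the second addition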
Calls only; i = inactive; . = not tested or not shown.

The opening three compounds, to show the layout:
Below each SMILES: TRPC6 inhibitor, MrgX1 ag, TRPC4 inh, MrgX1 antag, TRPC6 activator, MrgX1 PAM
Cc1cnc(NC(=O)C2=C(O)c3ccccc3S(=O)(=O)N2C)s1
  i, i, i, i, i, i
COC(=O)[C@@H]1[C@H]2C[C@H]3c4[nH]c5ccccc5c4CCN3C[C@@H]2CC[C@@H]1O
  i, i, i, i, i, i
Cc1onc(-c2c(Cl)cccc2Cl)c1C(=O)N[C@@H]1C(=O)N2[C@@H]1SC(C)(C)[C@@H]2C(=O)O
  i, i, i, i, i, i

The list itself, from the start:
Below each SMILES: TRPC6 inhibitor, MrgX1 ag, TRPC4 inh, MrgX1 antag, TRPC6 activator, MrgX1 PAM
Cc1cnc(NC(=O)C2=C(O)c3ccccc3S(=O)(=O)N2C)s1
  i, i, i, i, i, i
COC(=O)[C@@H]1[C@H]2C[C@H]3c4[nH]c5ccccc5c4CCN3C[C@@H]2CC[C@@H]1O
  i, i, i, i, i, i
Cc1onc(-c2c(Cl)cccc2Cl)c1C(=O)N[C@@H]1C(=O)N2[C@@H]1SC(C)(C)[C@@H]2C(=O)O
  i, i, i, i, i, i
N[C@@H](C(=O)N[C@@H]1C(=O)N2C(C(=O)O)=C(Cl)CS[C@H]12)c1ccccc1
  i, i, i, i, i, i
COc1c(N2C[C@@H]3CCCN[C@@H]3C2)c(F)cc2c(=O)c(C(=O)O)cn(C3CC3)c12
  i, i, i, i, i, i
Cn1c(=O)c2c(ncn2C)n(C)c1=O
  i, i, i, i, i, i
NS(=O)(=O)c1ccc(NC(=O)Nc2ccc(C(F)(F)F)cc2)cc1
  i, i, i, i, i, i
COc1ccc([C@@H]2Sc3ccccc3N(CCN(C)C)C(=O)[C@@H]2OC(C)=O)cc1
  i, i, i, i, i, i
C[C@H](C(=O)O)c1cccc(C(=O)c2ccccc2)c1
  i, i, i, i, i, i
CC(C)NCC(O)COc1cccc2ccccc12 (configuration not stated)
  i, i, i, i, i, i

Arranged by count of non-hydrogen atoms (descending): 6 of the compounds above.
Below each SMILES: TRPC6 inhibitor, MrgX1 ag, TRPC4 inh, MrgX1 antag, TRPC6 activator, MrgX1 PAM
Cc1onc(-c2c(Cl)cccc2Cl)c1C(=O)N[C@@H]1C(=O)N2[C@@H]1SC(C)(C)[C@@H]2C(=O)O
  i, i, i, i, i, i
COc1c(N2C[C@@H]3CCCN[C@@H]3C2)c(F)cc2c(=O)c(C(=O)O)cn(C3CC3)c12
  i, i, i, i, i, i
COC(=O)[C@@H]1[C@H]2C[C@H]3c4[nH]c5ccccc5c4CCN3C[C@@H]2CC[C@@H]1O
  i, i, i, i, i, i
Cc1cnc(NC(=O)C2=C(O)c3ccccc3S(=O)(=O)N2C)s1
  i, i, i, i, i, i
C[C@H](C(=O)O)c1cccc(C(=O)c2ccccc2)c1
  i, i, i, i, i, i
Cn1c(=O)c2c(ncn2C)n(C)c1=O
  i, i, i, i, i, i

Other results follow:
Below each SMILES: TRPC6 inhibitor, MrgX1 ag, TRPC4 inh, MrgX1 antag, TRPC6 activator, MrgX1 PAM
Cc1nc2ccc(S(=O)(=O)NCC(=O)NCCN3CCCCCC3)cc2s1
  i, i, i, i, i, i
Cc1nc(-c2ccccc2)c(-c2ccccc2)[nH]1
  i, i, ., i, i, i
CCc1ccc(NC(=O)Nc2ccsc2C(=O)OC)cc1
  i, i, i, i, i, i
C[C@@H]1C[C@H]2[C@@H]3C[C@H](F)C4=CC(=O)C=C[C@]4(C)[C@@]3(F)[C@@H](O)C[C@]2(C)[C@@]1(O)C(=O)CO
  i, i, i, i, i, i
CC(=O)c1nc2ccccc2n1S(=O)(=O)c1ccc(Cl)cc1
  i, i, i, i, i, i
Cc1cccc(N2CCN(C(=O)c3cc4c(=O)n(C)c5ccccc5c4n3C)CC2C)c1 (configuration not stated)
  i, i, i, i, i, i
O=c1[nH]cnc2c1ncn2[C@H]1CC[C@@H](CO)O1
  i, i, i, i, i, i
CC1(C)O[C@@H]2CC3C4C[C@H](F)C5=CC(=O)C=CC5(C)C4C(O)CC3(C)[C@]2(C(=O)CO)O1 (some centres not stated)
  i, i, i, i, i, i
CCN(CC)CCOc1ccc(/C(=C(/Cl)c2ccccc2)c2ccccc2)cc1
  i, i, i, i, i, i
CN/C(=C\[N+](=O)[O-])NCCSCc1csc(CN(C)C)n1
  i, i, i, i, i, i

Full records as entered above:
CC(C)NCC(O)COc1cccc2ccccc12 (configuration not stated) as listed: TRPC6 inhibitor: i; MrgX1 ag: i; TRPC4 inh: i; MrgX1 antag: i; TRPC6 activator: i; MrgX1 PAM: i
Cc1onc(-c2c(Cl)cccc2Cl)c1C(=O)N[C@@H]1C(=O)N2[C@@H]1SC(C)(C)[C@@H]2C(=O)O as listed: TRPC6 inhibitor: i; MrgX1 ag: i; TRPC4 inh: i; MrgX1 antag: i; TRPC6 activator: i; MrgX1 PAM: i
Cc1nc2ccc(S(=O)(=O)NCC(=O)NCCN3CCCCCC3)cc2s1 as listed: TRPC6 inhibitor: i; MrgX1 ag: i; TRPC4 inh: i; MrgX1 antag: i; TRPC6 activator: i; MrgX1 PAM: i

Later entries.
Below each SMILES: TRPC6 inhibitor, MrgX1 ag, TRPC4 inh, MrgX1 antag, TRPC6 activator, MrgX1 PAM
COC(=O)c1sccc1NC(=O)Nc1cccc(OC)c1
  i, i, i, i, i, i
COc1ccc(C2CC(c3ccccc3)=NN2C(=O)CCCC(=O)O)cc1 (configuration not stated)
  i, i, i, i, i, i
CC[N+](C)(C)c1cccc(O)c1
  i, i, i, i, i, i
O=C(O)c1cc(NS(=O)(=O)c2cccc3ccccc23)ccc1O
  i, i, i, i, i, i
N#Cc1c(-c2cccc(Br)c2)cc(-c2ccco2)[nH]c1=O
  i, i, i, i, i, i
CC(=O)Nc1cccc(-c2nnc(-c3ccc(C)cc3)o2)c1
  i, i, i, i, i, i
CCOC(=O)c1ncn2c1CN(C)C(=O)c1cc(F)ccc1-2
  i, i, i, i, i, i
COCCCOc1ccnc(CS(=O)c2nc3ccccc3[nH]2)c1C (configuration not stated)
  i, i, i, i, i, i

This is a subset, so the mix of outcomes need not match the whole.
